Ab BasE inh: blocks the Acinetobacter baumannii siderophore enzyme BasE | purified BasE, fluorescence polarization binding displacement | inhibition, % (concentration not given with the values) | 0.1% of 84,000 active | AID 485350;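 active = both replicates above 25% with normal brightness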;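 note: 0% = negative plate control signal and 100% = positive plate control signal; stock transfer was 100 nL into about 30 µL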
LANA-nucl inh: LANA-nucleosome interaction inhibition; z-score (no concentration beside the values); FITC-LANA1-23 / chicken nucleosome fluorescence polarization; active compounds read low; 0.3% of 51,000 active;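 active = both repeat wells score below -2 in polarization z-score versus plate sample wells, excluding overly bright wells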;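 note: 100 nL library stock added to about 30 µL; numbers are from one replicate; some results filed as inactive read as strong as hits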
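Assay system: purified chicken nucleosomes with FITC-labelled LANA N-terminal peptide (1-23) / Probe or stimulus: 50 nM FITC-LANA1-23 probe / Compound dosing: pin-transferred compound, 100 nL / Times: compound with peptide–nucleosome mix 10–45 min at room temperature / Technique: fluorescence polarization, 480 nm excitation, 535 nm parallel and perpendicular emission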
* hit, by the source's call; · = not tested or not shown; & = joins results of further samples. Only part of the results is shown (hit frequency here may not be typical).

SMILES | Ab BasE inh | LANA-nucl inh
COc1ccccc1NC(=O)NCC(c1ccco1)N(C)C (configuration not stated) | 6.4 | ·
O=C(Cn1cnc2c(nc3n2CCCCC3)c1=O)NCc1ccco1 | -1.0 | 0.9
Cc1cc(-n2c(C)cc(C(=O)Cn3cc(S(=O)(=O)N(C)C)ccc3=O)c2C)no1 | -0.6 | ·
CCCCn1nnnc1COC(=O)[C@@H](NS(=O)(=O)c1cccc(Cl)c1)C(C)C | 0.6 | ·
Cc1cccc(Nc2ccccc2C(=O)O)c1C | -0.8&3.5 | 0.3&0.1&0.51&0.074
Cc1nc(N)ccc1I | 0.9 | ·
Cc1cccc2c3c([nH]c12)CCNC3 | -12 | 0.48
O=C(NCC1CCCCC1)c1ccc2ncsc2c1 | -1.5 | ·
O=C(NC1CC1)c1cc(Cl)nc2ccccc12 | 0.0 | ·
N#Cc1ccccc1CSc1nc(N)cc(N)n1 | -2.2 | -1.5
O=C1CCCC2=C1C(c1ccc(O)cc1)C1=C(CCCC1=O)N2 | -0.7 | -0.15
COC(=O)c1ccc(C(=S)N2CCCCC2)cc1 | 2.8 | -2.4
CC(C)(C)NS(=O)(=O)c1ccc(S(=O)(=O)N2CCCC2)cc1 | -0.7 | ·
CSc1ccccc1-n1nnnc1SCCSc1ccccc1-n1nnnc1SC | 1.9 | 0.43
CC(C)Cn1c(SCC(=O)Nc2sccc2C#N)nnc1-c1ccccc1F | -7.8 | ·
COC(=O)c1ccc(NC(=O)CSc2nc(=O)cc(N)n2-c2ccccc2)cc1 | -8.5 | ·
Cc1cc2c(cc1S(=O)(=O)CCC(=O)N1CCCC1)OCC(=O)N2 | -0.2 | -1.1
CSc1n[nH]c(NC(=O)Nc2ccccc2)c1S(=O)(=O)c1ccc(Cl)cc1 | 0.6 | ·
S=C=Nc1ccc2c(c1)OCCO2 | -0.6 | ·
Cc1cc(C(=O)COC(=O)/C=C/c2ccccc2)c(C)n1-c1nccs1 | 2.3 | ·
Cc1nc(CSc2ncnc3sc4c(c23)CCC4)cs1 | 1.3 | -0.54
CC(C)/C=N/NC(=O)c1ccc2c(c1)NC(=O)C(C)(C)O2 | -0.4 | -0.61
CSC1=NC=C(C#N)C2=NC(c3ccc(Cl)cc3)NN12 (configuration not stated) | 2.1 | ·
C=CCNC(=O)c1ccc(S(=O)(=O)N2CCC(C)CC2)cc1 | 3.6 | ·
CC(C)n1c(=S)[nH]c2ccccc21 | -4.2 | ·
CCCn1nc(NS(=O)(=O)c2ccccc2)c2cc3ccccc3nc21 | -0.8 | -0.42
Cc1ccc2cc(NC(=O)c3cc(C)n(C)n3)ccc2n1 | -0.4 | -0.68
O=C(CS(=O)(=O)Cc1ccccc1)Nc1ccc2c(c1)OCO2 | -0.8 | 0.45
O=C(Cc1ccc(Cl)cc1Cl)NCc1cccnc1 | 2.1 | ·
COC(=O)c1sccc1-n1cc(C#N)c(=O)n(C)c1=O | -3.0 | ·
O=C(O)c1ccnc(N2CCCC2)c1 | -1.8 | -0.19
CCCCc1nc(Cl)c(C#N)c2c1COC(C)(C)C2 | 3.9 | -0.64
NC[C@H]1O[C@H](O[C@H]2[C@H](O)[C@@H](O[C@H]3O[C@H](CO)[C@@H](O)[C@H](N)[C@H]3O)[C@H](N)C[C@@H]2N)[C@H](N)[C@@H](O)[C@@H]1O | -2.6 | -0.72&-0.088
O=C(/C=C/c1ccco1)NC(=S)n1cnc2ccccc21 | -1.1 | 0.33
O=C(CN1CCCC1)Nc1cccc(Cl)c1Cl | -1.0 | -0.025
O=C(OCc1ncc(-c2ccccc2)o1)C1CC2CCCC(C1)C2=O (configuration not stated) | 0.8 | ·
COc1ccc(N2CCN(CN3C(=O)NC(c4ccccc4)(c4ccccc4)C3=O)CC2)cc1 | 1.5 | ·
CSc1n[nH]c(-c2ccncc2)n1 | 3.4 | -0.8
FC(F)(F)c1ccc(N2CCN(Cc3cn[nH]c3-c3ccccc3)CC2)nc1 | -0.5 | ·
S=C(Nc1ccc2[nH]ccc2c1)NC1CC2C=CC1C2 (configuration not stated) | -4.6 | ·
O=C1NCCc2c(OC3CCCC3)cccc21 | 0.1 | -0.24
CCn1c(=O)n(CC)c2cc(N3CCCC3)c(NC(=O)Cc3ccccc3)cc21 | 3.1 | -0.034
CC1CN(CCn2cnc3c(N)ncnc32)CC(C)O1 (configuration not stated) | 0.9 | 0.3
NC(=O)C1(N2CCCCC2)CCN(C(=O)c2ccc(Cn3c(=S)[nH]c4cc5c(cc4c3=O)OCO5)cc2)CC1 | -1.4 | 0.19
O=C(OCc1cccnc1)C1CCCN(C2=NS(=O)(=O)c3ccccc32)C1 (configuration not stated) | 3.6 | ·
FC(F)(F)COc1nc(N2CCCCC2)nc(N(c2ccccc2)c2ccccc2)n1 | -0.3 | ·
CN(C)S(=O)(=O)c1ccc(C(=O)Nc2nnc(SCC(=O)NCC3CCCO3)s2)cc1 (configuration not stated) | -1.3 | 1.7
COc1ccc(S(N)(=O)=O)cc1C(=O)NCc1ccc2c(c1)OCO2 | 1.5 | ·
COC(=O)CNS(=O)(=O)c1cccs1 | -0.1 | ·
Nc1c2cnc(N3CCCC3)nc2nc(=O)n1-c1ccc(Cl)cc1 | 2.4 | ·
Next records follow:
SMILES | Ab BasE inh | LANA-nucl inh
CSc1ncc(C(=O)Nc2nc3ccccc3s2)cn1 | 4.8 | -0.42
C=CCNC(=S)N1CCN(C2CCCCC2)CC1 | 0.9 | -0.74
CC1CCN(CC(=O)Nc2ccccc2C#N)CC1 | -1.0 | 0.3
CCOC(=O)CN(C)C1=NS(=O)(=O)c2ccccc21 | 3.6 | -0.075
O=c1ccc(-c2ccc(S(=O)(=O)N3CCCc4ccccc43)s2)n[nH]1 | -2.3 | ·
CCN(CC(=O)c1ccco1)C1CCCCC1 | 4.3 | ·
COc1ccc(C2C(=O)N(C3CCCCCC3)CC(=O)N2C2CCCCC2)cc1 (configuration not stated) | -0.6 | -0.036
O=C1CC(Cc2ccccc2)C(=O)N1c1ccncc1 (configuration not stated) | 0.1 | 0.26
CCO/C=C1/C(=O)NC(=O)c2ccccc21 | 0.5 | ·
Cn1cnc2sc3c(c2c1=O)CCCC3 | 0.3 | -1.7

Of the compounds above, eight have a Cl atom.
SMILES | Ab BasE inh | LANA-nucl inh
CCCCn1nnnc1COC(=O)[C@@H](NS(=O)(=O)c1cccc(Cl)c1)C(C)C | 0.6 | ·
O=C(NC1CC1)c1cc(Cl)nc2ccccc12 | 0.0 | ·
CSc1n[nH]c(NC(=O)Nc2ccccc2)c1S(=O)(=O)c1ccc(Cl)cc1 | 0.6 | ·
CSC1=NC=C(C#N)C2=NC(c3ccc(Cl)cc3)NN12 (configuration not stated) | 2.1 | ·
O=C(Cc1ccc(Cl)cc1Cl)NCc1cccnc1 | 2.1 | ·
CCCCc1nc(Cl)c(C#N)c2c1COC(C)(C)C2 | 3.9 | -0.64
O=C(CN1CCCC1)Nc1cccc(Cl)c1Cl | -1.0 | -0.025
Nc1c2cnc(N3CCCC3)nc2nc(=O)n1-c1ccc(Cl)cc1 | 2.4 | ·

(listing goes on)
SMILES | Ab BasE inh | LANA-nucl inh
O/N=C(/C(=N/O)c1ccccc1)c1ccccc1 | -0.8 | ·
CNC(=O)CSc1nc2cc3c(cc2cc1C)OCCO3 | -1.6 | -0.47
Fc1ccc2[nH]c3nc(=S)[nH]nc3c2c1 | 0.5 | -0.2
O=C(NC1CCCCC1)C1CCCN1C(=O)NCc1ccccc1 (configuration not stated) | -0.4 | 0.7
COc1ccc2c(c1)c1c(c(=O)n(-c3cc(Cl)ccc3C)c(=O)n1CC(N)=O)n2C | -2.6 | 0.47
COc1ccc(C)cc1-n1nnnc1SCC(=O)N(CC(C)C)CC(C)C | 1.9 | ·
O=C(O)c1cnc(-c2ccccc2)nc1-c1ccccc1 | · | -0.58
CC1=C(C#N)C(C)C2=C(CC(C)(C)CC2=O)N1 (configuration not stated) | -3.3 | -0.94
COC(=O)Cn1cc(C(=O)c2cccs2)c2ccccc21 | -5.3 | -0.23
O=C1CCCN1C(=O)CSc1nc2c(Cl)cc(Cl)cc2[nH]1 | -0.2 | ·

The list goes on, overlapping the part above by three compounds.
SMILES | Ab BasE inh | LANA-nucl inh
CC1=C(C#N)C(C)C2=C(CC(C)(C)CC2=O)N1 (configuration not stated) | -3.3 | -0.94
COC(=O)Cn1cc(C(=O)c2cccs2)c2ccccc21 | -5.3 | -0.23
O=C1CCCN1C(=O)CSc1nc2c(Cl)cc(Cl)cc2[nH]1 | -0.2 | ·
CC1=C/C(=N\NC(=O)CCN2CCN(c3ccccc3)CC2)CC1 | -0.6 | ·
O=c1cnnc(N/N=C/C=C/c2ccccc2)[nH]1 | 3.4 | -0.96
O=C(COC(=O)C1=NNC(=O)CC1)NCC1CCCCC1 | 0.4 | ·
CC(C1CC1)n1nccc1NC(=O)c1ccc(S(=O)(=O)N(C)C)cc1 (configuration not stated) | -0.4 | ·
Cc1onc(-c2ccccc2)c1-c1csc(-c2ccno2)n1 | -3.3 | 2.4
Nc1nc(SCc2cccc3ccccc23)n[nH]1 | -3.7 | 0.94
CN(C)CC(C)(C)CNC1CC2CCC1C2 (configuration not stated) | 0.1 | -0.36
COC(OC)c1ccc(C#N)c(SCC(=O)c2ccc(C)cc2)n1 | -1.8 | -0.3
O=C(COc1nnc2c(n1)Nc1ccccc1S2)N1CCCc2ccccc21 | 1.9 | ·
Cc1[nH]n(-c2ccccc2)c(=O)c1N=O | 2.5 | ·
O=C1CC(O)(C(F)F)Oc2ccccc21 (configuration not stated) | -4.1 | 1.1
O=c1[nH]c(Nc2ccccc2)cc2ccccc12 | 4.9 | -0.27
Cc1ccsc1C1C(C#N)=C(N)Oc2nc(-c3ccccc3)[nH]c21 (configuration not stated) | 1.7 | ·
CCc1nnc(SCc2cc(=O)n3ccccc3n2)c2cc3occc3n12 | -2.9 | 2.7
c1cncc(-c2cccnc2)c1 | 3.1 | ·
CCN(CC)C(=S)SCc1ccc(C(=O)O)cc1 | 0.9 | ·
O=S1(=O)N=C(Oc2ccccc2Cl)c2ccccc21 | 6.0 | -1
CC(C)C1C(=O)CC(c2ccccc2)NC1c1ccccc1 (configuration not stated) | 1.5 | ·
CCOC(=O)/C(C#N)=C/c1ccc2c(c1)Sc1ccccc1N2C | -8.3 | ·
CC(C)(C)c1cc(C(F)(F)F)n2ncnc2n1 | 1.9 | ·
O=C(NCCCN1CCc2ccccc2C1)NCc1ccccc1 | 0.1 | 0.68
CCn1c(Cc2ccccc2)n[nH]c1=S | 4.0 | 0.61
c1ccc(-c2cc(-c3ccccc3)c(N3CCCC3)nn2)cc1 | 4.7 | -0.16
O=C(Nc1ccc(N2CCOCC2)c2nonc12)c1cc2ccccc2oc1=O | 1.5 | -1.5
CSc1cccc(NC2=CC(=O)CC(C)(C)C2)c1 | -1.0 | ·
O=C(O)CCn1ccc2ccccc21 | 2.8 | ·
COC(=O)CNC(=O)N1CCn2cccc2C1Cc1ccccc1 (configuration not stated) | -1.5 | 0.098
Cc1ccc(C)c(-n2nnnc2SCC(=O)OC(C)c2nc3sc(C)c(C)c3c(=O)[nH]2)c1 (configuration not stated) | 0.6 | ·
CNC(=O)c1ccsc1NC(=O)c1ccc(OC)c(OC)c1 | -11 | 0.27
Cc1nc(SCC(=O)O)[nH]c(=O)c1CCC(C)C | -4.2 | 1.5
O=C(CSc1nc(=O)n(Cc2ccccn2)c2c1CCC2)N1CCCCC1 | -2.7 | 0.99
CC(OC(=O)c1ccc(OC(F)F)cc1)C(=O)NC1CC1 (configuration not stated) | -0.1 | ·
Cn1cc(NC(=O)NCc2ccccn2)c2ccccc2c1=O | 2.4 | 0.29
Cc1cc(C)nc(NC(=O)C(C)N2C(=O)c3ccccc3S2(=O)=O)n1 (configuration not stated) | 2.3 | -0.51
O=C(Nc1ccc2oc(-c3ccc(Cl)cc3Cl)nc2c1)c1ccc2c(c1)OCO2 | 2.9 | -0.16
O=C(NCCN1CCCCCC1)c1cnn(-c2ccccc2)c1-n1cccc1 | 0.3 | -0.67
CCOc1ccc(N2C(=O)c3ccccc3C2=O)cc1 | 0.7 | ·
CC(C)NC(=O)c1cc(Cl)cc(Cl)c1 | · | 0.6
CCOC(=O)c1c(C)[nH]c(C)c1S(=O)(=O)N(C)CC(=O)N(C)c1ccc(C)c(C)c1 | 2.9 | 1.2
Cn1ncc(C(=O)O/N=C(\N)c2ccccc2)c1-n1cccc1 | 2.2 | -0.53
COc1ccc(C2Nc3ccccc3C(=O)N2NS(C)(=O)=O)cc1OC (configuration not stated) | 4.5 | -0.67
C1=CCC(CN2CCN(Cc3ccccc3)CC2)CC1 (configuration not stated) | -0.5 | -0.044
COc1ccc(Cl)cc1NC(=O)CSC1=NN2CCCC(=O)N=C2S1 | -3.4 | 0.79
O=C(CSc1nnc(CN2CCCC2)n1Cc1ccccc1)Nc1ccccc1 | 0.5 | ·
Cn1c(CCNC(=O)c2cnc(N3CCOCC3)nc2)nc2ccccc21 | -0.9 | 1.4
CC1CCCN(c2nc3nonc3nc2Nc2cccc(Cl)c2)C1 (configuration not stated) | 0.8 | -0.82
CCOC(=O)Cc1csc(SCC(=O)c2ccc3c(c2)OCCO3)n1 | 0.4 | ·
Brc1c(CSc2nc3ccccc3o2)nc2ccccn12 | 1.2 | 0.5
CN(C)S(=O)(=O)c1ccc(/C(O)=C(\C#N)c2nc3ccccc3s2)cc1 | -8.3 | ·
COc1ccc2c(c1)c1c(c(=O)n(-c3ccccc3)c(=O)n1CC(=O)N1CCCC1)n2C | -2.1 | -0.52
Other records follow:
SMILES | Ab BasE inh | LANA-nucl inh
c1ccc(Cn2c(-c3cccs3)nc3ccccc32)cc1 | 2.2 | 0.7
COc1cccc(C2=Nc3cccc4cccc(c34)N2)c1 | 1.2 | ·
Fc1ccc(N2COc3cc4c(cc3C2)OCO4)cc1Cl | 0.6 | 0.7
CCOc1cc(C#N)ccc1OCC(=O)NC1CCCCCC1 | -1.9 | 0.62
